# Source: PubChem BioAssay (National Center for Advancing Translational Sciences (NCATS))
# Cruzain inh Det: inhibitors of Trypanosoma cruzi cruzain with detergent. P25779. purified cruzain, Z-FR-AMC fluorescence, 0.01% Triton. Potency, µM, without a hit: max response, negative = inhibition, most hits filed as inhibitors. hit rate 0.43% among 200,000. AID 1478;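 note: plate controls were neutral wells for no effect and buffer without enzyme for full effect; nearly all actives have a fitted effect of over 40% in size; top concentration of the series not given in the record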
# Target sequence (P25779 123-467 limits assumed): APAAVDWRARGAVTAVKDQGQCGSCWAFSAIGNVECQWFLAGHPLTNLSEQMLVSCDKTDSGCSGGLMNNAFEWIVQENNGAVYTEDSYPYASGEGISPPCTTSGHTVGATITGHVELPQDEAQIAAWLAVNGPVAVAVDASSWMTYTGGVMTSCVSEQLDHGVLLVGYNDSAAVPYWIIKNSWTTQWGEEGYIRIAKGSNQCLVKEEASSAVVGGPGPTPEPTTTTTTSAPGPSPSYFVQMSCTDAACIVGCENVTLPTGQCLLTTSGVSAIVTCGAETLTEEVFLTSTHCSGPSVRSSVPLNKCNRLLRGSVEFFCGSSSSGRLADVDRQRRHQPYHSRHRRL
#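 Compounds were screened in titration against cruzain (1.5 nM) with 0.01% Triton X-100 to counter colloidal aggregation. Activity was the AMC fluorescence increase over 60 s after adding 2 uM Z-FR-AMC at pH 5.5.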
# Cruzain inh noDet: inhibitors of Trypanosoma cruzi cruzain without detergent; purified cruzain, Z-FR-AMC fluorescence, no detergent; hit rate 2.3% among 200,000; Potency, µM, for inactives: max response, negative = inhibition, usual class: inhibitors; P25779;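 note: plate controls were enzyme without inhibitor for no effect and buffer without enzyme for full effect; nearly all actives have a fitted effect of over 40% in size; top concentration of the series not given in the record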
#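 Detergent-free condition (0.00005% Triton X-100) in acetate buffer pH 5.5 with DTT. 1.5 nM enzyme and compound were pre-mixed 15 min, then 2 uM Z-FR-AMC substrate added; reaction progress from fluorescence change between first and third reads (60 s).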
# 2A StopGo: FMDV 2A StopGo reporter, luciferase signal. AID 1159524. hit rate 1.2% among 410,000. human cells with a luciferase reporter of 2A StopGo recoding; control for the full effect not named in the record. Potency, µM (top dose mostly 57.9 µM), for the others: at the highest dose signal change, negative = less light; active = well fitted falling curve with a large enough effect; inconclusive = small, poorly fitted or top-dose-only effect; inactive = no such curve, though single readings can be large or run the other way; tested in HEK293T cells; note: % is set by controls: 0 for no effect and ±100 for the full control effect; nearly all actives have a fitted effect of over 45% in size; luciferase light after 4 h
# NS1 inh: inhibitors of influenza NS1 protein function | Potency, µM (titrated, usually from 46.1 µM), for inactives: top-dose activity, positive = more growth | S. cerevisiae slowed by influenza A NS1, growth recovery by OD600 | hit rate 0.4% among 270,000; active means well fitted rising curve with a large enough effect; inconclusive means small, poorly fitted or top-dose-only effect; inactive means no such curve, though single readings can be large or run the other way; note: nearly all actives have a fitted effect of over 50% in size
#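 A cell-based growth assay was used: compounds that relieve NS1-induced slow growth of budding yeast raise OD600. Assay medium was yeast nitrogen base with ammonium sulphate and -URA supplement, pH 6.0, with 2% galactose.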
# MARV entry inh: Marburg virus entry inhibition | Marburg virus pseudotyped entry inhibition, cell reporter; control for the full effect not named in the record; about a third of the inactives were read at about 46 µM | Potency, µM (highest dose often 37.8 µM), without a hit: top-dose activity change, negative = inhibition, actives largely listed as inhibitors | hit rate 1.8% among 300,000; active = well fitted inhibition curve with a large enough effect; inconclusive = small, poorly fitted or top-dose-only effect, or effect the other way; inactive = flat fitted curve, though single readings scatter; tested in HEK293 cells; about a fifth of its hits are not listed in these tables; note: % is set by controls: 0 for no effect and ±100 for the full control effect; luciferase read-out
# SARS PLpro yeast: inhibitors of SARS-CoV papain-like protease in yeast; hit rate 0.19% among 330,000; Potency, µM (highest dose often 32.9 µM), without a hit: at the highest dose activity, positive = growth rescue; S. cerevisiae expressing SARS-CoV PLpro, growth rescue; control for the full effect not named in the record; active means well fitted rising curve with a large enough effect; inconclusive means small, poorly fitted or top-dose-only effect; inactive means no such curve, though single readings can be large or run the other way; note: 0% is about no effect; nearly all actives have a fitted effect of over 55% in size; growth read by luminescence after 48 h
# LASV entry inh: blocks Lassa virus binding to or entry into cells; Lassa virus pseudotype entry inhibition, cell reporter; control for the full effect not named in the record; Potency, µM (doses to about 37.9 µM), for the others: at the top dose activity change, negative = inhibition, hits mostly inhibitors; hit rate 1.2% among 300,000; AID 540256; active means well fitted inhibition curve with a large enough effect; inconclusive means small, poorly fitted or top-dose-only effect, or effect the other way; inactive means flat fitted curve, though single readings scatter; tested in HEK293 cells; note: % is set by controls: 0 for no effect and ±100 for the full control effect; nearly all actives have a fitted effect of over 50% in size; luciferase read-out
# RE007 growth inh: less growth of the S. pombe RE007 Vpr strain | S. pombe RE007 Vpr strain, BacTiter-Glo ATP luminescence, 24 h; control for the full effect not named in the record | Potency, µM (top dose mostly 92.2 µM), without a hit: at the highest dose activity change, negative = less growth | hit rate 0.21% among 360,000 | AID 651644; active = well fitted falling curve with a large enough effect; inconclusive = small, poorly fitted or top-dose-only effect; inactive = no such curve, though single readings can be large or run the other way;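 note: % is set by controls: 0 for no effect and ±100 for the full control effect; nearly all actives have a fitted effect of over 50% in size; the assay follows cell death caused by Vpr and the record does not say whether a fall means rescue or toxicity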
#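 Fission yeast RE007 carrying one integrated HIV-1 vpr copy, seeded at OD 0.01 in PMG+AL medium with 23 nL pinned compound. Grown 24 h at 30 degrees; viability read by BacTiter-Glo luminescence after 5 min.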
# * marks the source's active call; other numbers are inactive results; ? = inconclusive; / = not tested or not shown; & = joins results of further samples; [ ] = dose if it differs, or a comment. Unless noted, calls come from the whole dose curve; as a rule, active = well fitted curve in the direction sought with a large enough effect; inconclusive = small, poorly fitted or top-dose-only effect, or another doubt; inactive = no such curve, though single readings can be large; an effect the other way counts as inactive or inconclusive. Potency is the fitted concentration of half-maximal effect.
SMILES,Cruzain inh Det,Cruzain inh noDet,2A StopGo,NS1 inh,MARV entry inh,SARS PLpro yeast,LASV entry inh,RE007 growth inh
O=C(Cc1ccccc1)N/N=C/c1cc(Br)c(Br)o1,-5.4%,-8.0%,58.8%[activator],-0.8%,14.0%,1.7%,2.0%,13.7%
CC(NC(=O)COC(=O)Cc1ccc(Cl)cc1)c1ccccc1 (stereo not drawn),/,/,-3.2%,/,-18.5%[46.1 µM],-6.6%,-3.5%[46.1 µM],4.7%
CC1CC1C(=O)Nc1nc2ccc(S(C)(=O)=O)cc2s1 (stereo not drawn),/,/,42.9%[activator],-8.8%,?,-2.9%,?,4.8%
C[C@H]1CCC[C@H](O)CCCCCc2cc(O)cc(O)c2C(=O)O1,-7.5%&-18.1%,-12.3%&-10.4%,11.2µM*,-71.4%,-1.0%,1.7%,/,-5.3%[18.4 µM]
CSc1ncccc1C(=O)Nc1ccc(S(=O)(=O)NC2=NCCCCC2)cc1,/,/,28.6%,-5.6%,-1.7%[46.1 µM],-1.0%,13.3%[46.1 µM],4.1%
O=C(Oc1ccc([N+](=O)[O-])cc1)C1CC(=O)N(c2ccc3c(c2)OCCO3)C1 (stereo not drawn),/,/,-3.6%,/,12.0%,18.2%,-15.2%,-2.6%
Cn1cc(/C=N\NC(=O)C2COc3ccccc3O2)c2ccccc21 (stereo not drawn),-3.2%,0.8%,/,-7.9%,-1.5%,0.8%,-10.1%,/
COc1ccccc1CC(Cc1nc2ccccc2[nH]1)c1nc2ccccc2[nH]1 (stereo not drawn),-0.4%,13.5%,-16.0%,-3.4%,?,0.3%,29.9%[46.1 µM],-6.4%
Cc1ccc(N2CC(C(=O)Nc3ccc(N(C)C)cc3)CC2=O)cc1C (stereo not drawn),-10.6%,1.3%,0.1%,-9.8%,?,-5.4%,-11.3%,17.1%[3.69 µM]
C=CCn1c(SCC(=O)c2c(N)n(C)c(=O)n(C)c2=O)nc2sc(CC)cc2c1=O,0.1%,?,0.0%,1.3%,-16.5%&-16.5%,-0.2%,1.9%,18.2%
Nc1ccc(NC(=O)c2cccs2)cc1,/,/,32.0%[activator],2.1%,/,-0.6%,/,-8.0%
CCN1CCN(c2ncnc3c2c(-c2ccccc2)cn3-c2ccc(F)cc2)CC1,/,/,-20.2%,/,16.0%[46.1 µM],2.9%,19.4%,-6.1%
Cc1ccc(C)c(N2CCN(S(=O)(=O)c3cc(-c4cc(C)no4)ccc3C)CC2)c1,-1.0%,?,-22.5%,/,/,/,-27.8%[46.1 µM],/
Cc1cc(-c2ccc(Cl)cc2)c(C#N)c(N)n1,11.6%,?,-7.5%,-7.1%,-0.7%,-10.9%,12.2%,-1.9%
CSCC[C@H](NC(=O)N1CCn2c1nc1ccccc12)C(=O)N[C@@H](C(=O)O)c1ccccc1,/,/,24.3%,2.4%,/,1.2%,/,12.0%
Cc1cc(C)c(C(=O)Nc2ccc(S(=O)(=O)Nc3ccccn3)cc2)c(C)c1,/,/,26.6%,-0.7%,-22.3%[46.1 µM],7.5%,-16.9%,5.4%
Cc1c(C)n(CC(O)CN2CCCCCC2)c2ccccc12 (stereo not drawn),6.0%,0.3%,-4.7%,2.8%,-7.3%[46.1 µM],-6.8%,0.9%,3.4%
N/C(=N\OC(=O)CSc1ccccc1)c1cccc([N+](=O)[O-])c1,-28.9%,-19.0%,31.7%[activator],-4.9%,?,-27.7%,13.6%,-4.5%
O=C(/C=C/c1ccc([N+](=O)[O-])o1)NNC(=O)c1ccc(F)cc1,/,/,?,-0.9%,?,-6.6%,?,2.2%
CC1(c2ccccc2)CC(C)(C)n2c(O)c(C3=NC(=S)NC3=O)c3cccc1c32 (stereo not drawn),/,/,?,-2.9%,/,-0.5%,/,-13.3%
O=C(NN1C(=O)C2C3c4ccccc4C(c4ccccc43)C2C1=O)C1CC1 (stereo not drawn),/,/,-0.9%,0.8%,0.2%[46.1 µM],0.1%,-22.6%[46.1 µM],-3.7%
COc1cc(NC(=O)CCc2nc(-c3cccs3)no2)cc(OC)c1OC,-2.2%&-0.2%,2.7%&-3.3%,?,-1.8%,-3.0%&1.0%[46.1 µM],0.0%,17.7%[46.1 µM],-10.6%
O=C(CN1C(=O)COc2ccc(S(=O)(=O)N3CCCCCC3)cc21)N1CCN(c2ccccc2F)CC1,-4.1%,5.8%,0.0%,/,1.1%[46.1 µM],/,-0.3%[46.1 µM],/
Nc1cc(=O)[nH]c(SC/C=C/c2ccccc2)n1,0.4%,?,0.0%,26.3%,-7.1%,4.2%,18.4%,28.0%
COc1ccccc1CNC(=O)C(C)n1ccc2cc(S(=O)(=O)N3CCCC3)ccc21 (stereo not drawn),-4.7%,1.6%,-5.6%,/,/,/,3.5%[46.1 µM],/
SMILES,Cruzain inh Det,Cruzain inh noDet,2A StopGo,NS1 inh,MARV entry inh,SARS PLpro yeast,LASV entry inh,RE007 growth inh
CC/C(=N\N1CCCCCC1)c1c(O)n(-c2ccccc2C)c(=O)[nH]c1=O,-7.9%,5.1%,?,2.3%,-21.0%,15.5%,10µM*,6.6%
O=C(Nc1sc2c(c1C(=O)O)CCCC2)c1cccc(Cl)c1,/,/,18.1%,-53.5%,/,-8.3%,/,?
CCN(c1ccccc1)S(=O)(=O)c1ccc(Cl)c(C(=O)OCC(=O)NC(=O)C(C)C)c1,/,/,-0.6%,-8.6%,/,1.7%,/,-12.7%
Oc1ccc(Br)cc1CNn1cnnc1,1.5%,-0.5%,-10.8%,?,4.7%,4.2%,8.0%,4.3%
O=C(c1cccc([N+](=O)[O-])c1)c1ccc2[nH]c(=O)[nH]c2c1,/,/,1.4%,3.8%,-12.5%[46.1 µM],4.1%,/,-13.0%
COCc1[nH]nc2c1C(c1ccsc1)C(C#N)=C(N)O2 (stereo not drawn),1.3%,-0.7%,?,-9.3%,11.1%,2.4%,7.9%,-5.5%
Cc1cc(C)nc(SCC(=O)Nc2nonc2N)n1,/,/,-6.4%,-2.1%,/,0.1%,/,18.1%
O=C(CCCCCCN1C(=O)c2ccccc2C1=O)N1CCC(c2ccccc2)C1 (stereo not drawn),-4.5%,?,?,-11.7%,3.9%,-10.5%,?,-8.5%
COc1ccc(Nc2ncc(C(=O)O)c3ccccc23)cc1,-2.2%,-10.3%,33.1%[activator],4.3%,10.7%,3.7%,26.7%,9.5%
Cc1cc(NC(=O)c2ccccc2C)ccc1NC(=O)c1ccccc1Cl,/,/,25.6%,-8.4%,/,1.0%,/,-8.3%
CCN1CCC(O)(c2ccccc2)C(C(=O)c2ccccc2)C1 (stereo not drawn),/,/,-21.1%,/,-10.7%,/,-38.5%,-21.4%
Cc1c(NC(=O)Nc2ccc(Cl)cc2)c(=O)n(-c2ccccc2)n1C,5.1%,-13.4%,9.9%,11.1%,-20.2%,-4.4%,-1.1%,-13.0%
COc1ccc(C2(CNC(=O)c3ccc(OCC(C)C)cc3)CCOCC2)cc1,-5.9%,?,-41.1%,-1.6%,-15.1%,-26.4%,?,2.6%
CC1CCc2c(sc3nc(CN4CCOCC4)nc(Sc4ccccc4)c23)C1 (stereo not drawn),-4.6%,?,-2.2%,6.5%,?,-26.4%,13.2%,-0.1%
Cc1ccc2sc(N(CCN(C)C)C(=O)/C=C/c3cccs3)nc2c1C,/,/,-5.9%,-0.9%,/,-2.6%,/,-1.1%
Cc1cccc(CNC(=O)c2ccc(NC(=O)N3CCSc4ccccc43)cc2)c1,-8.8%,?,-21.9%,/,13.0%[46.1 µM],/,-13.4%[46.1 µM],/
COc1ccc(Cn2c(=S)[nH]c3cc(OC)c(OC)cc3c2=O)cc1,/,/,-8.1%,/,?,-1.3%,6.4%,10.4%
COc1cc2c(cc1OC)C(C)N(S(=O)(=O)c1cn(C)c(C)n1)CC2 (stereo not drawn),/,/,-13.3%,1.4%,?,0.3%,-0.9%[46.1 µM],15.4%
COc1ccc(CCC(=O)OCC(=O)Nc2ccccc2)cc1,/,/,19.3%,-23.6%,?,-0.6%,0.0%[46.1 µM],5.0%
CCOc1ccc(-c2n[nH]c(C)c2Oc2ccc(OC)cc2)c(O)c1,-5.1%,-7.5%,3.5%,-182.9%,-0.2%,-2.4%,?,2.3%
COC(=O)C1=C(C)N(C)C(C)=C(C(=O)OC)C1c1ccccn1,-4.9%,-6.5%,-11.8%,9.7%,-1.6%,-3.7%,7.7%,8.7%
Cc1ccc(SCc2[nH]nc3c2C(c2ccco2)C(C#N)=C(N)O3)cc1 (stereo not drawn),-19.5%,-17.5%,/,-37.2%,-26.2%,-21.4%,-16.9%,14.5%
COCCNC(=O)C(c1ccc(O)cc1)N(Cc1ccccc1)C(=O)CCC(=O)Nc1ccccn1 (stereo not drawn),/,/,19.3%,0.3%,23.1%[46.1 µM],1.2%,/,10.1%
Cc1ccc(C)c(NC(=O)Cn2nc(C(F)(F)F)cc2C2CC2)c1,-1.0%,-8.6%,-0.9%,-7.2%,-1.3%,-1.3%,-0.1%,3.8%
Cc1ncc2c(c1OC(=O)c1ccc([N+](=O)[O-])cc1)COC(C)(C)OC2,1.2%,-3.5%,21.4%,-31.3%,15.5%,1.8%,14.5%,4.9%
SMILES,Cruzain inh Det,Cruzain inh noDet,2A StopGo,NS1 inh,MARV entry inh,SARS PLpro yeast,LASV entry inh,RE007 growth inh
Cc1ccc2[nH]c(=O)c(-c3nc4ccccn4c3NCc3ccco3)cc2c1,-3.7%,-5.8%,28.1%,0.9%,10.2%,-3.5%,17.8%,15.8%
CCCCCCCCCCC/C=C\C(C)(C)/C=C\CCCC(=O)O,-2.3%&-1.4%,?,-12.3%[6.7 µM],-2.7%,?,/,9.2%,/
CN(C)c1ccc(C(CNC(=O)c2ccc(F)cc2)c2c[nH]c3ccccc23)cc1 (stereo not drawn),-8.3%,?,-23.8%,18.2%,16.0%,12.2%,-13.5%,5.6%
CCOc1ccc(NC(=O)CC2C(=O)N(c3ccc(OC)cc3)C(=O)N2CCc2cccs2)cc1 (stereo not drawn),-6.4%,10.4%,4.6%,11.2%,?,-1.2%,7.31µM*,-1.7%
C=C1N2CCC(CC2)C1(O)c1ccccc1C (stereo not drawn),-0.5%,-0.8%,-15.0%,5.1%,0.4%[46.1 µM],-1.5%,0.0%,0.9%
C=CCN1C(=O)C(Cc2ccccc2)SC1=Nc1ccc(C(=O)O)cc1 (stereo not drawn),-6.3%,-9.8%,-17.3%,-13.7%,?,22.2%,-8.6%,17.5%
